Beta2AR agonist = agonists of human beta-2 adrenergic receptor inducing internalization; Am2.2-beta2AR cells, FAP receptor internalization, flow cytometry; reference of the scale not given here; AID 504454; response, % (concentration not given with the values); P07550; 340,000 compounds, 0.43% hits;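 active = response above a set limit, near 3 SD of response in nonfluorescent compounds, cut at about 42% in these data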;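 also: stock transfer was 100 nL into about 11 µL; a reference agonist was the positive control; negative values mostly stem from fluorescent compounds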
Target sequence (P07550 whole entry, looked up): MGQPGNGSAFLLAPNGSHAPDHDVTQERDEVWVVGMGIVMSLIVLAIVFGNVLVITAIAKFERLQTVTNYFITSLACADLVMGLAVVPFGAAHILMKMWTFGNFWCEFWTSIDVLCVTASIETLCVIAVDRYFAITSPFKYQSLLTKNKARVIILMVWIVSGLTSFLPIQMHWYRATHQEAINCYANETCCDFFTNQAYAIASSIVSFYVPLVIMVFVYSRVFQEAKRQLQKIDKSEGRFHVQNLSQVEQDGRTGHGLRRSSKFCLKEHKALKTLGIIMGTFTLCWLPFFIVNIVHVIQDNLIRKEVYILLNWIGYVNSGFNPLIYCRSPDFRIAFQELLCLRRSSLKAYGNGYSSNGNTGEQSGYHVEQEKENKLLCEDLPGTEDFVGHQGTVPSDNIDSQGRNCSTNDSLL
Beta apoptosis = beta cell apoptosis inhibition | INS-1E cytokine-induced death, ATP luminescence, 48 h; percent of positive-control rescue, neutral wells zero | protection from apoptosis, % (no concentration beside the values) | 300,000 compounds, 0.8% hits | AID 435005;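 active = all replicates at 75% or more, or half of them and the mean; inconclusive = half reach 75% but not the mean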;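 also: 0% = cytokine-treated negative control wells and 100% = positive control rescue; higher means more ATP so stronger rescue from cytokine killing; wells of about 40 µL received 100 nL stock; the first replicate is given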
A1 inh = inhibitors of the anti-apoptotic protein A1, read as caspase activation. MEF A1-2A-BIM cells, Caspase-Glo 3/7 luminescence, 3 h; percent of clofoctol response, vehicle zero. caspase activation, % (no concentration beside the values). 330,000 compounds, 0.066% hits;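 active = over half of replicate activation scores above 10%, or exactly half above 10 with the replicate mean above 10; inconclusive = replicate mean below 10 yet half the replicates above 10; inactive = over half of replicates below 10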;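 also: wells of about 30 µL received 50 nL stock; many hits fall short of the cut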
ALR H2O2 inh = blocks human ALR sulfhydryl oxidase activity | 290,000 compounds, 3.8% hits | AID 485317 | purified ALR, DTT oxidation, H2O2 HRP-luminol luminescence | P55789 | inhibition, % (test concentration not listed);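 active = mean and each replicate at 75% or more; inconclusive = only one of the two met; inactive = neither met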;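 also: stock transfer was 7.5 nL into about 7.5 µL; 0% = neutral wells and 100% = wells with inactivated enzyme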
Target sequence (P55789 whole entry, looked up): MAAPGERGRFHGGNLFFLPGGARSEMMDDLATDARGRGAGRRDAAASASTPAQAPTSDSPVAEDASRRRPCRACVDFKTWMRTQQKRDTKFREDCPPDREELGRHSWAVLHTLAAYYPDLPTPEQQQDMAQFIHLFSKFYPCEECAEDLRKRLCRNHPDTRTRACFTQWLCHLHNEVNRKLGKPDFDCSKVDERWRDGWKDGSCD
Ecoli rRNA inh = inhibits bacterial ribosomal RNA function over humanized ribosomes; E. coli WT GFP vs humanized-ribosome RFP mutants, fluorescence, 24 h; hits give low values; DMSO median 0, no signal -100; GFP signal change (wild-type ribosome), % (concentration not given with the values); 350,000 compounds, 1.6% hits; AID 720706;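 active = significant combined selectivity score with lowered wild-type GFP, culture density cut under 30%, mutant RFP and density less affected; inactive = any of these conditions unmet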; also: one replicate is shown; some compounds called inactive have numbers as strong as hits
T cruzi repl = T. cruzi replication inhibition; T. cruzi beta-gal in NIH3T3, luminescence, 90 h; inhibition, % (test concentration not listed); 300,000 compounds, 1.4% hits;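 active = mean inhibition across valid replicates above about 55%, limit read from the data; inconclusive = mean below that limit but half or more replicates reach it; inactive = mean below it, under half of replicates reach it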;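 also: signal also drops with host cell toxicity which is not excluded here; 0% = plate median of DMSO wells and 100% = zero luminescence signal; higher percent means less beta-gal luminescence so fewer parasites; stock transfer was 50 nL into about 50 µL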
Calb FLC = C. albicans growth modulation with fluconazole | 300,000 compounds, 0.57% hits | AID 1979 | growth inhibition, % (concentration not given with the values) | C. albicans CaCi-2 (fluconazole-resistant clinical isolate) + fluconazole, Alamar Blue growth, 48 h;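 active = most replicates above 75%; inconclusive = exactly half above 75%; inactive = most below 75%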;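 also: all wells also contain fluconazole at 8 µg/ml as a sub-toxic cotreatment; 0% = median of DMSO wells and 100% = median of geldanamycin control wells; wells of about 8 µL received 7.5 nL stock; the first replicate is given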
LANA-H2A inh = blocks KSHV LANA binding to histone H2A/H2B | Q9QR71 | cell-free LANA-H2A/H2B peptide, fluorescence polarization | inhibition, % (concentration not given with the values) | 320,000 compounds, 0.6% hits; in the data active = inhibition mostly above about 10%, no sharp cut-off; inactive = mostly below about 6.7%;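 also: stock transfer was 7.5 nL into about 10 µL; 0% = median of vehicle wells and 100% = median of positive control wells; one replicate is shown; the record names a cut of 25% in any replicate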
Ecoli rRNA inh OD600 = also measured in Ecoli rRNA inh; calls as there; OD600 change, %; measured here: OD600 growth;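 optical density of the mix in the first replicate; 0 = DMSO median and -100 = no signal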
Ecoli rRNA inh RFP = further read-out of Ecoli rRNA inh, marked with its call; RFP signal change, %; measured here: RFP humanized mutant strains;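 first replicate; 0 = DMSO median and -100 = no signal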
Numbers without * were called inactive; ? = inconclusive; · = no result given. Only part of the results is shown; rates above refer to the full screens.

canonical_smiles	Beta2AR agonist	Beta apoptosis	A1 inh	ALR H2O2 inh	Ecoli rRNA inh	Ecoli rRNA inh OD600	Ecoli rRNA inh RFP	T cruzi repl	Calb FLC	LANA-H2A inh
S=C(Nc1ccccc1Cl)N1CCCCC1	-4	-5	0.7	-8	10	-1	-6.1	4	-1	5.2
N#Cc1ccc(Oc2cc(C(F)(F)F)nc(-c3ccccn3)n2)cc1	-25	-4	?	-25	·	·	·	-1	3	-2.5
CCC(C)(O)c1[nH]c2ccc(C(F)(F)F)cc2c1C (stereo unspecified)	4	-3	-0.6	-9	10	1	-1.0	-7	-14	0.3
O=C1CC2(CCCC2)C(=O)N1CN1CCN(S(=O)(=O)c2ccc(Cl)c(Cl)c2)CC1	10	4	-0.1	11	21	5	-1.7	·	·	-3.2
CSc1cccc(NC(=S)N(Cc2ccccc2)Cc2cccnc2)c1	-10	1	0.2	-10	-33	-45	-2.4	83*	1	-6.8
O=C(c1ccccc1)N1CN2CN(C(=O)c3ccccc3)CC([N+](=O)[O-])(C2)C1	0	·	0.9	4	·	·	·	-8	4	0.5
O=C(NNc1nc(-c2ccccc2)cs1)c1cccs1	-9	-1	-3.4	68	-8	4	-1.7	-17	7	-3.3
CC1CCCCC1NC(=O)C(C)N1C(=O)c2ccccc2C1=O (stereo unspecified)	-11	-4	0.3	·	2	-5	-2.5	·	·	-1.0
O=C(O)Cc1sc(N/N=C\c2ccccc2)nc1-c1ccccc1	1	2	-2.4	18	·	·	·	-2	12	2.6
CCOC(=O)CSc1nc2c(cnn2-c2ccc(C)cc2)c(=O)[nH]1	16	-2	0.5	-3	·	·	·	-11	12	2.0
O=C(Nc1ccc2oc(-c3ccc4ccccc4c3)nc2c1)c1cccs1	1	25	-1.5	-9	·	·	·	2	-4	-1.5
CC1=CC(C)C2C(=O)N(O)C(=O)C2C1 (stereo unspecified)	-2	-2	0.9	-3	·	·	·	-4	3	0.7
O=C(COC(=O)c1cc(S(=O)(=O)N2CCCC2)ccc1O)NCCc1ccccc1	9	-4	2.8	·	-15	-17	-5.3	·	·	-2.5
O=C(c1ccccc1[N+](=O)[O-])N(CCc1ccccc1)Cc1ccccc1	-2	-2	0.1	1	-12	-30	-6.6	22	-20	-6.2
Clc1cccc(-c2nc3nc4ccccc4nc3n2Cc2ccccc2)c1	-18	8	-0.1	-4	11	13	5.6	33	8	-0.9
CC(=O)Nc1cccc(N=NN2CCCCC2)c1	4	4	-0.6	88*	9	11	-2.4	·	-7	2.5
O=C1CCCN1c1ccc(N2CCCC2=O)cc1	0	·	-0.4	-4	11	6	-1.2	-16	1	-2.3
C=CCOc1c(Br)cc(CNc2ccc(NC(=O)CCC)cc2)cc1OCC	-8	3	-0.6	13	·	·	·	24	3	-3.5
CC(C)(C)c1ccc(S(=O)(=O)N2CCC(O)(c3ccc(Cl)cc3)CC2)cc1	2	4	-0.3	-2	-30	-42	-5.7	30	-3	-2.2
Cc1ccc(C2N(c3ccc(Cl)cc3)C(=O)N3CCCN23)cc1 (stereo unspecified)	7	-3	-0.4	-6	-48	-73	-11	-5	5	-6.8
CCN(C(=O)CSc1nnnn1-c1ccccc1OC)C1CCS(=O)(=O)C1 (stereo unspecified)	8	3	-0.3	·	10	15	0.1	-12	-8	6.1
CS(=O)(=O)N(CC(=O)N1CCCCCC1)Cc1ccc(Cl)cc1	2	5	-0.5	0	·	·	·	3	8	0.0
CCC(C)(C(=O)NC1CCCCC1)N(Cc1ccco1)C(=O)Cc1cccs1 (stereo unspecified)	5	-12	-0.1	·	·	·	·	5	-1	2.5
CCN(c1ccc(C)c(C)c1)S(=O)(=O)c1c(C)[nH]c(=O)[nH]c1=O	5	-5	-0.3	-3	·	·	·	2	-4	-1.6
Cn1c(SCC(=O)N2c3ccccc3Sc3ccccc32)nnc1-c1ccco1	-1	·	0.0	-15	·	·	·	26	-3	-1.8
CCOC(=O)N1CCN(C(=O)c2ccc(N(Cc3ccccc3)S(C)(=O)=O)cc2)CC1	3	0	-0.5	-11	·	·	·	3	-2	-1.3
Cn1c(C(C(=O)NCC2CCCO2)N(CCc2ccccc2)C(=O)Cn2nnc3ccccc32)nc2ccccc21 (stereo unspecified)	4	-1	0.6	-1	-22*	-13*	2.3*	24	-7	-2.7
Cc1cccn2c(=O)c3cc(C(=O)NCC4CCCO4)c(=N)n(C4CCCC4)c3nc12 (stereo unspecified)	-6	·	1.7	0	-5	8	-0.9	32	0	0.6
O=C(CSc1nnnn1-c1ccccc1)NCCCN1CCCC1=O	-5	-5	0.0	-9	6	-3	-2.6	·	·	-0.1
CNc1c(N)n(Cc2ccccc2)c(=O)[nH]c1=O	12	0	0.7	-5	·	·	·	-7	22	0.8
CC(C)NC(=O)NC(=O)CSc1ncc(C(F)(F)F)cc1Cl	-16	-7	0.5	-2	·	·	·	10	-16	2.4
CC1c2cc3c(cc2CCN1C(=O)c1cccc(Cl)c1)OCCCO3 (stereo unspecified)	11	6	-0.3	-4	-26	26	12	6	-6	-1.4
O=C(Cn1c(=O)oc2cc(S(=O)(=O)N3CCCC3)ccc21)Nc1ccc(C(F)(F)F)cc1	6	0	0.8	-1	·	·	·	-9	-2	5.0
CS(=O)(=O)c1cccc(C(=O)Nc2ccc(-c3nc4ccccc4[nH]3)cc2)c1	-144	-7	-0.2	?	-1	12	-2.8	-1	-1	0.2
Cc1nn(C(=O)Cn2ccc([N+](=O)[O-])n2)c(C)c1Br	3	-4	0.0	-5	12	12	4.2	5	0	-0.9
O=S(=O)(/C=C/c1ccccc1)N1CCN(c2ccccc2)CC1	-4	-2	-0.1	-4	·	·	·	-9	1	2.1
O=c1[nH]cc(-c2ccccc2)c(=O)[nH]1	-5	1	1.5	-3	17	20	2.1	-10	7	-1.5
O=C(CSc1nnnn1-c1ccccc1)Nc1nsc(-c2ccccc2)n1	-5	-8	-0.3	-4	·	·	·	-5	15	4.3
CCn1c(=S)sc2c(=O)n(CC(=O)Nc3ccccc3OC)c(C)nc21	-7	7	0.9	12	3	9	1.0	0	23	-0.6
COc1ccc(-c2nc(CN3CCN(c4ccccc4OC)CC3)c(C)o2)cc1	15	-7	0.0	7	-21	-27	4.1	7	-26	-4.6
COc1ccccc1/C=N/NC(=O)NC12CC3CC(CC(C3)C1)C2	-3	9	-0.7	2	-9	-26	4.3	12	-14	0.3
O=C(Oc1ccc(-c2cnc3ccccc3n2)cc1)c1cc([N+](=O)[O-])ccc1Cl	3	·	-7.4	-6	·	·	·	4	-1	2.3
Cc1cccc(NC(=O)CC2SC(=O)N(c3ccccc3)C2=O)c1 (stereo unspecified)	5	-9	-0.5	98*	·	·	·	-2	5	3.6
CCOc1ccc2ccccc2c1/C=N\NC(=O)OC	-13	-5	0.5	-20	6	7	-0.1	-1	-2	1.8
Cc1cccc(C)c1NC(=O)COc1ccc2c(C)c(Cc3ccccc3)c(=O)oc2c1	-8	12	-0.4	-1	13	12	-3.0	-24	-17	3.9
O=C(CCCN1C(=O)c2ccccc2C1=O)Nc1nccs1	7	-2	1.0	9	·	·	·	-11	27	2.0
O=C1CC(c2ccco2)CC(O)=C1C=NCCN1CCN(C(=O)Nc2ccc(Cl)cc2)CC1 (stereo unspecified)	-3	0	-0.3	·	·	·	·	-17	12	4.3
CC(=O)C[C@H]1c2cc(C(F)(F)F)ccc2S(=O)(=O)N1c1ccccc1	5	-5	-0.8	-4	3	8	1.4	-5	7	-0.2
CCOc1ccc(S(=O)(=O)N/N=C(\C)c2ccc3c(c2)OCO3)cc1	-3	-3	-0.2	13	4	2	1.9	-15	12	-1.6
COc1ccc(NS(=O)(=O)c2cccc3cccnc23)cc1Cl	20	-1	1.4	8	-24	-23	-3.9	3	-1	-3.6
O=C(O)[C@H](CSCc1ccccc1)NS(=O)(=O)c1ccc(F)cc1	5	6	-0.4	17	·	·	·	-9	-14	-3.0
CC(NC(=O)Cn1cc(C(=O)C2CC2)c2ccccc21)c1ccccc1 (stereo unspecified)	-8	-6	-0.7	2	·	·	·	-10	5	4.0
CCCc1cc(=O)oc2cc(OCC(=O)Nc3ccccn3)ccc12	-6	-1	-5.4	0	17	7	0.3	-14	5	2.6
CCn1c(/C=C/c2ccccc2C)nc2ccccc2c1=O	6	5	0.5	2	-6	-10	7.0	3	6	-1.1
COc1cccc(NC2=C(NCCO)C(=O)c3ccccc3C2=O)c1	-2	-2	0.4	87*	-18	-34	-2.2	-15	5	-4.9
O=C(O)CNC(=O)c1nc(-c2ccccc2)n(-c2ccccc2)n1	4	-2	-0.7	0	·	·	·	6	6	4.1

Other structures follow.
canonical_smiles	Beta2AR agonist	Beta apoptosis	A1 inh	ALR H2O2 inh	Ecoli rRNA inh	Ecoli rRNA inh OD600	Ecoli rRNA inh RFP	T cruzi repl	Calb FLC	LANA-H2A inh
COc1cccc2oc(-c3ccco3)cc(=O)c12	3	17	-1.6	13	0	-3	-7.4	19	-2	-1.5
Cc1cccc(/C(N)=N/OC(=O)c2ccc(Cl)cc2Cl)c1	5	0	-7.2	-4	-36	-37	-9.5	6	6	-1.5
O=C(O)c1ccc2ncsc2c1	0	-1	-0.6	?	0	-15	-0.5	12	-5	2.7
COc1ccc(Cl)cc1Nc1nc(NCCO)nc(N2CCCCC2)n1	2	2	-0.2	-1	11	14	-0.7	28	3	-1.5
O=S(=O)(Nc1ccc2c(c1)nc1n2CCOC1)c1ccccc1	-3	-2	0.1	3	·	·	·	-7	28	7.9
C[C@H](NC(=O)c1ccco1)C(=O)N1CCN(c2ccc(C(F)(F)F)cn2)CC1	0	3	1.9	-1	0	0	-1.1	·	·	5.2
Cc1ccc(-n2nnc3c(=O)n(Cc4ccccc4C)cnc32)cc1	2	-9	0.3	·	3	10	-2.9	-8	-2	11
CCn1ccnc1[C@@H]1C[C@H]2CN(Cc3cccc(Cl)c3)C(=O)[C@]23CCCN13	-1	-17	-0.5	·	-4	-3	0.0	-18	-6	6.1
COc1ccc(-c2c(C)nn3c(Cl)c(C)c(C)nc23)cc1	-4	2	-0.2	-1	8	11	0.5	-12	18	7.1
O=c1[nH]c2c(s1)C(c1cccnc1)C1C3CCC(C3)C1S2 (stereo unspecified)	-1	2	0.6	17	·	·	·	-10	3	-0.5
CN(CC(=O)Nc1ccc(Cl)c(S(=O)(=O)N(C)C)c1)Cc1ccccc1	-7	3	0.5	·	-22	-16	1.1	4	-7	-2.4
Cc1ccc(-n2c3c(cc(C(=O)NCCCN4CCOCC4)c2=O)C(=O)CC(C)(C)C3)cc1	2	-5	-0.2	·	10	23	3.3	8	5	5.9
O=C(Cc1ccc(F)cc1)Nc1cccc(-c2ccc3nncn3n2)c1	1	4	-0.1	-9	-3	-7	2.7	-7	-33	1.7
CC(C)C(=O)Nc1ccc(C(=O)N/N=C/C2CC3C=CC2C3)cc1 (stereo unspecified)	1	-6	-0.4	-11	12	2	-1.7	-4	17	-4.3
Cc1ccc(NS(=O)(=O)c2ccc(C(C)C)cc2)cc1S(=O)(=O)N1CCOCC1	5	5	0.4	5	-10	-5	3.6	·	·	-10
Cc1cc(NC(=O)Cc2ccc(Br)cc2)no1	-10	-5	0.0	·	23	11	9.2	-16	-4	6.1
